Compound activity as filed in PubChem.
Mtb MenB inh: inhibitors of Mycobacterium tuberculosis MenB enzyme | P9WNP5 | MenB enzyme assay, absorbance read-out; some hits fall short of the stated cut | inhibition, %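 (about 12 µg/mL by stock and volumes)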 | 100,000 compounds, 0.43% hits | AID 540299;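 active means mean of two replicates above 30%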;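 further: 0% = no compound and 100% = wells with inactive enzyme; the first replicate is given; strong numbers were not always called active; inactives centre near -10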
Target sequence (P9WNP5 whole entry, looked up): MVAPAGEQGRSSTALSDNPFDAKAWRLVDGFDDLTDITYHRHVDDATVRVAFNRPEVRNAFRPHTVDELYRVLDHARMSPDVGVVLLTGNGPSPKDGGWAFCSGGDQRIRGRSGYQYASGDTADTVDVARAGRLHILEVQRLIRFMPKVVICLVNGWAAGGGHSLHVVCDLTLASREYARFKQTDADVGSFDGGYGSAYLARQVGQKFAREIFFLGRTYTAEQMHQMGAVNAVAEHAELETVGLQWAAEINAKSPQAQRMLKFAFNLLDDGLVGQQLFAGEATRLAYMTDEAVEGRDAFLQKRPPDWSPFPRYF
PV pol inh: poliovirus RNA polymerase inhibition; AID 588519; % elongation, % (compound at 16.7 µg/mL); 150,000 compounds, 0.66% hits; poliovirus polymerase elongation, fluorescence polarization; stronger effect = lower value; in the data active means % elongation below about 90%; further: some results filed as inactive read as strong as hits
MbtI inh: inhibitors of Mycobacterium tuberculosis siderophore enzyme MbtI. P9WFX0. purified MbtI enzyme, fluorescence intensity read-out. inhibition, %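 (about 17 µg/mL by stock and volumes)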. 100,000 compounds, 0.89% hits. AID 493033;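 active means above 50% in both replicates, above 80% if mildly self-fluorescent; inactive means the rest, strongly fluorescent compounds included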;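 further: 0% = mean of negative and 100% = mean of positive controls; one replicate is shown; some compounds called inactive have numbers as strong as hits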
Target sequence (P9WFX0 whole entry, looked up): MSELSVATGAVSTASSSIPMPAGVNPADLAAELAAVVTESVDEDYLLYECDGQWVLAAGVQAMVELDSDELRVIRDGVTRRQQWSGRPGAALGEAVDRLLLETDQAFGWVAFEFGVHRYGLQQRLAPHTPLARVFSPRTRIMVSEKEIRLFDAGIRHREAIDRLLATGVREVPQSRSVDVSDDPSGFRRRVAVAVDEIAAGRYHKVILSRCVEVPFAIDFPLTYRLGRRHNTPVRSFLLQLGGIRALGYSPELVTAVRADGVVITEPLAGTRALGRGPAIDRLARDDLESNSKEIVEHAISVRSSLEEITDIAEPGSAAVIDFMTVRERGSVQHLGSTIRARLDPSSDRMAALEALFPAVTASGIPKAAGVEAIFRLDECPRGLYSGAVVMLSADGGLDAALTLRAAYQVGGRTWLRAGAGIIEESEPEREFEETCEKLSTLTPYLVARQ
PV pol inh intensity: recorded beside PV pol inh, whose call it bears; % elongation; measured here: total intensity read-out; formula for this scale not given here;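 total fluorescence in place of polarization; lower means less elongation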
Active calls of the source: *; i = inactive; · = no result given.

SMILES	Mtb MenB inh	PV pol inh	PV pol inh intensity	MbtI inh
CC1(C)Cc2ccccc2-c2nc(-c3ccccc3)n(N)c(=O)c21	-3	102	104	-17
Cc1c(NC(=S)NC(=O)c2ccccc2)c(=O)n(-c2ccccc2)n1C	10	99	102	0
CCc1ccc(Nc2ncnc3sc(C)cc23)cc1	-28	101	100	-6
N#CCCn1cc(/C=N/NC(=O)c2ccncc2)c(-c2ccc(F)cc2)n1	-37	105	101	3
O=C(Nc1ccccc1)NC1CS(=O)(=O)CC1NC(=O)Nc1ccccc1 (stereo not given)	-13	103	102	-3
CCONC1=NCC(C)S1 (stereo not given)	0	111	105	5
O=C(NCCCN1CCN(Cc2c(F)cccc2Cl)CC1)c1cccc(C(F)(F)F)c1	-5	105	111	-13
O=C(CSc1nnc(-c2ccccc2)o1)NC(=O)Cc1ccccc1	-2	105	113	-8
CCOC(=O)C1=C(CN2CCc3ccccc3C2)NC(=O)NC1c1ccc(OC(C)C)cc1 (stereo not given)	-42	99	102	7
S=c1[nH]ccn1-c1ccc(Cl)cc1	-4	103	106	27
Cc1cccc[n+]1C1[C@@H](c2cccnc2)C(C#N)=C([S-])N[C@]1(C)O (stereo not given in full)	-23	102	97	·
Cc1nc(C)c(C(=O)O)c(-c2ccc(F)cc2)c1C(=O)O	4	101	100	·
BrCc1cn(-c2ccccc2)nc1-c1ccccc1	·	101	94	-9
NC(=O)c1ccc(CN2CCc3ccccc3C2)cc1	-12	102	103	·
CCOC(=O)Cn1cnc2ccccc2c1=O	9	107	107	·
CC1=C(C(=O)Nc2ccccc2)C(c2ccccn2)C(C(=O)Nc2ccccc2)=C(C)N1	-12	105	110	·
CN(C)CCc1cc2c(c3c1ccc1ccccc13)OCO2	-11	98	95	112
CCc1ccccc1NS(=O)(=O)c1ccc2[nH]cc(C(=O)NCC3CCCO3)c(=O)c2c1 (stereo not given)	-2	100	103	-66
CC(=O)O[C@H]1CC[C@@]2(C)C(=CCC3C2CC[C@]2(C)C(=O)CCC32)C1 (stereo not given in full)	-8	100	104	-22
N#CC1(c2cccc(Br)c2)C(=O)Nc2ccccc21 (stereo not given)	·	101	98	2
CN(C)c1nc(=S)nc(NCc2ccccc2)[nH]1	-10	100	102	-20
O=C(Nc1cccc(-c2nnc(-c3ccco3)o2)c1)C(c1ccccc1)c1ccccc1	5	105	114	·
COC(=O)CC1=C(C)C(=O)CC2C(C)(C)CCC[C@]12C (stereo not given in full)	-17	102	95	·
CCc1cc2c(=O)c(-c3nc4ccccc4[nH]3)coc2c(CN2CCCC(C)C2)c1O (stereo not given)	-17	102	99	-4
O=c1cc(-c2ccccc2)nc2nc[nH]n12	-24	104	99	14
O=C1NC(=O)N(C2CCCCC2)C(=O)/C1=C\C=C\c1ccco1	-113	107	116	-10
CC1=C/C(=N\NC(=S)Nc2ccc(F)cc2)CC1	-58	104	104	13
O=C(Cn1cnc2ccccc21)NN=C1CCCCCC1	-5	98	103	-11
CCCCc1ccc(NC(=O)CS)cc1	-10	100	100	4
CN(Cc1cc(=O)n2ccsc2n1)C1CCCCC1	2	103	106	i
Cc1ccc(-n2nc(C)c3c(C(=O)Nc4cccnc4)cc(C)nc32)cc1	-18	102	102	-20
CCS(=O)(=O)N1CCN(CC2CC3C=CC2C3)CC1 (stereo not given)	2	102	103	-20
CCOC(=O)c1ccc(-c2ccc(C3Nc4ccccc4-c4nnc(SCC)nc4O3)o2)cc1 (stereo not given)	-1	105	101	12
O=C(COC(=O)c1ccc(Br)cc1)NCc1ccccc1	·	100	98	-3
COc1cccc(NC(=S)N(CCN(C)C)C(C)c2cccnc2)c1 (stereo not given)	-31	101	103	-11
CCOC(=O)CS(=O)(=O)c1nc(-c2ccccc2)cc(C(F)(F)F)n1	6	103	107	31
O=C(C(Cc1ccccc1)n1cccc1)N1CCN(c2ccccc2)CC1 (stereo not given)	-16	101	102	2
O=C(CN1C(=O)c2ccccc2C1=O)OCC(=O)c1ccc[nH]1	-13	112	117	-2
CCN(Cc1ccccc1)C(=O)N1CCOCC1	-8	104	109	·
C=CCNC(=O)Cn1nnc(-c2ccc(C)cc2)n1	-14	105	103	-15
Cc1ccnc2nc(C(=O)OCC(=O)NCc3cccc(Cl)c3)nn12	0	111	116	-11
COc1ccc(OCC(=O)N(Cc2nc(-c3ccccc3)no2)C2CCCCC2)cc1	-18	105	109	-12
O=C(Nc1ccn(Cc2ccccc2)n1)c1ccccc1	-19	101	103	2
COc1ccc(C(=O)Oc2c(C)occc2=O)cc1	-5	101	101	1
COc1ccc2c(c1)N(C[C@H](C)CN(C)C)c1ccccc1S2	-1	101	101	-6
N#CCSc1nc2cc(C(F)(F)F)ccc2n1Cc1ccccc1	-21	111	121	-3
Cc1cc(C)c2nc(NC3=NCCCCC3)sc2c1	-12	101	92	-7
COCC(=O)Nc1ccccc1C(N)=O	0	101	103	-5
COC(=O)c1ccc(COC(=O)c2ccc(OC)c(OC)c2)cc1	-27	100	103	-12
O=C(CCC(=O)N1CCCC1)Nc1nc(-c2cc3cc(Br)ccc3oc2=O)cs1	-3	104	105	0
CC(C)(C)C(=S)Nc1cccc(Cl)c1	-20	101	99	0
CC(C)n1cc(C(=O)N(C2CC2)C(C(=O)NC2CCCC2)c2ccccc2)cn1 (stereo not given)	-22	106	100	-6
O=C1C=CC(=O)N1c1ccccc1F	-20	104	102	100*
CC1CCCN(C(=O)CCNS(=O)(=O)c2ccc3c(c2)c(=O)n(C)c(=O)n3C)C1 (stereo not given)	-7	101	106	12
CC(C)C(NC(=O)c1ccc(F)cc1)C(=O)Oc1ccc(F)cc1 (stereo not given)	·	104	104	-10
Cc1cc(C(=O)Cn2cnnc2C#N)c(C)n1-c1ccc(OC(F)(F)F)cc1	2	106	108	20
COc1ccccc1C(=O)Oc1nnc2c3ccccc3cnn12	-65	101	102	1
Cc1ccc(NC(=O)Cn2c(C)c3cnn(-c4ccccc4)c(=O)c3c2C)cc1	8	100	103	2
Cc1ccc(C)c(Cn2nnc3c2nc(C)n2c(=O)[nH]nc32)c1	-3	100	105	-26
O=C(O)c1ccccc1OCC(=O)N1CCCC1	-9	105	111	·
The list goes on:
SMILES	Mtb MenB inh	PV pol inh	PV pol inh intensity	MbtI inh
O=C(O)COc1c(I)cc(Cl)c2cccnc12	-23	109	112	2
CC(C(=O)c1ccccc1)C1(O)C(=O)Nc2ccccc21 (stereo not given)	-22	106	99	-9
O=C(O)CC1(O)C(=O)N(Cc2ccccc2)c2ccccc21 (stereo not given)	-13	106	114	·
O=C(Nc1cccc(Cl)c1)n1ncc2cc(Cl)ccc21	4	103	98	-1
Cc1nc2c(sc3nc4c(cc32)COC(C)(C)C4)c(=O)n1Cc1ccco1	-35	101	102	-6
C/C(O)=C/C(=O)Nc1cccc(C(F)(F)F)c1	·	104	105	-9
CN(CC(=O)Nc1ccccc1Sc1ccccc1)C1CCS(=O)(=O)C1 (stereo not given)	-13	100	99	-8
Clc1ccccc1COc1ccccc1-c1nnco1	-11	106	105	4
CN(C)C1CCS(=O)(=O)C1 (stereo not given)	-36	102	104	-13
CC1(C)O[C@@H]2C[C@H]3[C@@H]4C[C@H](F)C5=CC(=O)C=C[C@]5(C)[C@H]4[C@@H](O)C[C@]3(C)[C@]2(C(=O)CO)O1	4	101	104	-4
Cc1ccc2oc(=O)n(CC(=O)OC(C)C)c2c1	-2	102	101	-11
Cc1cc(C)c(C#N)c(SCC(=O)C2CC2)n1	-19	101	105	·
Cc1cc(N2CCC(C(N)=O)CC2)nc(-c2ccccc2)n1	6	99	102	2
CCn1c(SC/C(O)=C(\C(=O)OC)c2nc3ccccc3[nH]2)nnc1-c1ccccc1OC	-29	102	105	-8
CCC(C)c1ccc(OCC(=O)Nc2ccc(NC(=O)c3ccco3)cc2)cc1 (stereo not given)	-24	100	102	12
c1ccc2cc(OCCN3CCOCC3)ccc2c1	9	102	98	4
CC(C)c1ccccc1NC(=O)COC(=O)COc1ccc(Cl)cc1	·	100	106	-2
N#Cc1ccc(OCC(F)(F)C(F)F)cc1C#N	16	99	102	16
COc1ccccc1C(=O)CSc1nnnn1-c1ccc(C)cc1C	-10	102	94	8
CC(Sc1nnnn1C)C(=O)c1ccc(Cl)cc1 (stereo not given)	7	99	103	17
COc1ccc(/C(C)=N/O)cc1	-4	101	102	·
C(=NN1CCN(c2ccccn2)CC1)c1cccc2ccccc12	-14	103	104	9
O=c1[nH]c(=O)n(C2OC(CO)C(O)C2O)cc1Br (stereo not given)	-1	98	101	10
CN(C)CCN(Cc1ccco1)C(=O)Cn1nc(Cc2ccncc2)c2ccccc2c1=O	-12	102	104	-2

An excerpt from above in order of SMILES length, ascending.
SMILES	Mtb MenB inh	PV pol inh	PV pol inh intensity	MbtI inh
CC(Sc1nnnn1C)C(=O)c1ccc(Cl)cc1 (stereo not given)	7	99	103	17
COc1ccccc1C(=O)CSc1nnnn1-c1ccc(C)cc1C	-10	102	94	8
CCn1c(SC/C(O)=C(\C(=O)OC)c2nc3ccccc3[nH]2)nnc1-c1ccccc1OC	-29	102	105	-8

Other entries follow.
SMILES	Mtb MenB inh	PV pol inh	PV pol inh intensity	MbtI inh
Cc1ccc(-n2c(SC3CCOC3=O)nc3ccccc32)cc1 (stereo not given)	-10	101	107	-16
COc1ccccc1CNC(=O)c1ccc2c(=O)n3c(nc2c1)CCCCC3	8	101	100	0
Cc1ccc(N2C(=O)C3SC(N)=C(C#N)C(c4ccco4)C3C2=O)cc1 (stereo not given)	-15	104	109	9
N#CCc1ccc(NC(=O)c2ccccc2C(=O)O)cc1	6	101	97	0
CC1CCC2(CC1)NC(=S)N(C)N2 (stereo not given)	-5	99	103	0
COc1ccc(Cn2c(=O)c3cccnc3n(Cc3ccc(C)cc3)c2=O)cc1	11	99	103	-4
O=C(CSc1nnc(-c2ccccc2)o1)c1ccc2c(c1)OCCO2	1	100	101	-7
O=C(CSc1nnc2ccccn12)Nc1ccc(N2CCOCC2)cc1	11	99	104	5
CCN1CCc2c(OCC(=O)NC3CCCCC3)cccc2C1=O	-11	100	102	-7
CCOc1ccc2[nH]c(=O)c(CN(CC3CCCO3)C(=O)N(CC)CC)cc2c1 (stereo not given)	-19	105	101	14
CCn1c(C)c(CCC(=O)Nc2cccc(OC)c2)c(=O)n2nc(-c3ccccc3OC)cc12	-9	103	103	21
CN(c1ccccc1C(=O)NC(C)(C)C)S(C)(=O)=O	0	103	102	-9
CC(=O)[C@H]1[C@H](C#N)CC2C3CC=C4C[C@@H](O)CCC4(C)C3CCC21C (stereo not given in full)	8	99	103	·
CC1CN(CN2C(=O)CCC2=O)CC(C)O1 (stereo not given)	14	102	107	-27
Cc1ccc2c(COC(=O)C3COc4ccccc4O3)cc(=O)oc2c1 (stereo not given)	-8	106	112	1

Structures above containing fluorine, in the order listed:
SMILES	Mtb MenB inh	PV pol inh	PV pol inh intensity	MbtI inh
N#CCCn1cc(/C=N/NC(=O)c2ccncc2)c(-c2ccc(F)cc2)n1	-37	105	101	3
O=C(NCCCN1CCN(Cc2c(F)cccc2Cl)CC1)c1cccc(C(F)(F)F)c1	-5	105	111	-13
Cc1nc(C)c(C(=O)O)c(-c2ccc(F)cc2)c1C(=O)O	4	101	100	·
CC1=C/C(=N\NC(=S)Nc2ccc(F)cc2)CC1	-58	104	104	13
CCOC(=O)CS(=O)(=O)c1nc(-c2ccccc2)cc(C(F)(F)F)n1	6	103	107	31
N#CCSc1nc2cc(C(F)(F)F)ccc2n1Cc1ccccc1	-21	111	121	-3
O=C1C=CC(=O)N1c1ccccc1F	-20	104	102	100*
CC(C)C(NC(=O)c1ccc(F)cc1)C(=O)Oc1ccc(F)cc1 (stereo not given)	·	104	104	-10
Cc1cc(C(=O)Cn2cnnc2C#N)c(C)n1-c1ccc(OC(F)(F)F)cc1	2	106	108	20
C/C(O)=C/C(=O)Nc1cccc(C(F)(F)F)c1	·	104	105	-9
CC1(C)O[C@@H]2C[C@H]3[C@@H]4C[C@H](F)C5=CC(=O)C=C[C@]5(C)[C@H]4[C@@H](O)C[C@]3(C)[C@]2(C(=O)CO)O1	4	101	104	-4
N#Cc1ccc(OCC(F)(F)C(F)F)cc1C#N	16	99	102	16
